miR-21 FLuc = qHTS Assay for Modulators of miRNAs and/orActivators of miR-21 | 340,000 tested, under 10 active | Potency, µM (series often up to 38.3 µM), inactives show at the highest dose reporter change, positive = more light | HeLa miR-21 FLuc reporter, luciferase, 48 h; active = well fitted rising curve with a large enough effect; inconclusive = small, poorly fitted or top-dose-only effect; inactive = no such curve, though single readings can be large or run the other way;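 further: % of control where 0% means no effect; miR-21 action dims this reporter so a rising signal means less miR-21 action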
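HeLa cells stably expressing CMV-driven firefly luciferase with a downstream miR-21 binding sequence, endogenously expressing miR-21, were treated with titrations (up to about 40uM final) for 48 hours at 37 degree Celsius. Luciferase luminescence was read after lysis.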
* hit, by the source's call; ? = inconclusive. These rows are one share of the data; count on the stated rates, not on these rows.

item	smiles	miR-21 FLuc
1	CC(C)N(Cc1nc(-c2ccc(Cl)cc2)no1)C(=O)c1ccco1	10%
2	COc1cc(NC(=O)CCS(=O)(=O)c2ccc(Br)cc2)cc(OC)c1	-4%
3	CCOc1ccc(N2CC(c3nc4ccccc4n3CCOc3ccc(CC)cc3)CC2=O)cc1 (stereo not drawn)	0%
4	COc1cccc(-c2noc(COc3ccc(C(C)(C)C)cc3)n2)c1	-18%
5	FC(F)(F)c1cc(-c2cccc(Br)c2)nc2ncnn12	-20%
6	CCc1nn2c(=O)cc(COC(=O)c3ccc(NC(=O)C4CCCCC4)cc3)nc2s1	-9%
7	COc1cccc(CN2C(=O)c3ccccc3Sc3ccc(C(=O)N(C)Cc4ccccc4)cc32)c1	26%
8	O=C(NNc1ncnc2c1cnn2-c1ccccc1)c1cccc(Cl)c1	-6%
9	COc1ccc(-c2nc3ccccc3s2)cc1NC(=O)c1cccc([N+](=O)[O-])c1C	-51%
10	COc1ccc(CCNc2nc3c(-c4cccc(C(F)(F)F)c4)nnn3c3ccccc23)cc1OC	0%
11	COc1ccc(CNC(=O)c2cc3oc4ccccc4c3n2C)cc1OC	8%
12	CCOc1ccccc1CN1CCN(S(=O)(=O)c2ccccc2)CC1	-7%
13	CCOC(=O)c1cc(OC(=O)c2cc(Cl)ccc2OC)n(-c2ccccc2)n1	-8%
14	Cc1cc(Nc2cccc(C(F)(F)F)c2)nc2ccc(NC(=O)Cc3ccc(Cl)cc3)cc12	?
15	Cc1nc2c(c(C)nn2C(C)(C)C)c(C)c1CCC(=O)Nc1ccc(F)cc1	-1%
16	CCn1cc(S(=O)(=O)c2ccccc2)c(=O)c2cc(F)c(N3CCCCCC3)cc21	0%
17	COc1ccc2c(c1)cc1c(=O)n(CC(=O)NCCc3ccccc3)nc(C)n12	-2%
18	CN(C)C(=O)c1ccc(NC(=O)Cn2nc(-c3ccccc3)c3ccccc3c2=O)cc1	3%
19	COc1ccc2c(c1)CC(C(=O)NCCc1ccc(S(N)(=O)=O)cc1)CO2 (stereo not drawn)	1%
20	O=C(CCSCc1cccc(Cl)c1)N1CCN(c2ccc(Cl)cc2)CC1	0%
21	Cc1ccc(-c2nc3sc(CCNC(=O)c4ccc(Br)o4)c(C)n3n2)cc1	-12%
22	Cc1nc(-c2ccc(S(=O)(=O)N3CCN(c4ccccc4F)CC3)cc2)co1	5%
23	COc1cccc(CNC(=O)c2ccc3nc(-c4ccccc4)c(-c4ccccc4)nc3c2)c1OC	?
24	CCOCCc1nn2c(=O)cc(COC(=O)c3ccc(NC(=O)C4CCCCC4)cc3)nc2s1	6%
25	COc1cc(OC)c(NC(=O)Cn2c(=O)oc3cc(S(=O)(=O)N4CCCC4)ccc32)cc1Cl	10%
26	COc1ccc(CCNc2ncnc3c2nnn3C)cc1OC	-2%
27	CCOC(=O)C1CCN(C(c2ccc(C)cc2)c2sc3nc(-c4ccco4)nn3c2O)CC1 (stereo not drawn)	-2%
28	CCCN(C(=O)CCc1nc(-c2ccc(OC)cc2)no1)c1ccccc1F	10%
29	Cc1ccc(OCc2nc(C#N)c(NCCc3ccccc3)o2)cc1	-3%
30	Cc1ccc(C(=O)NCCSc2c(C)[nH]c3ccccc23)cc1C	?
31	Cc1ccc(-c2cc(-c3coc4ccc(Cl)cc4c3=O)c3c(n2)-c2ccccc2OC3)cc1	-2%
32	COc1cc(C2c3c(oc4ccccc4c3=O)C(=O)N2c2nc(C)c(C)s2)ccc1O (stereo not drawn)	2%
33	Cn1cc(-c2cc3n(n2)CCC(=O)N3CCCC(=O)Nc2ccccc2F)c2ccccc21	-5%
34	O=C(CCC1N=C2c3ccccc3N=C(SCc3ccccc3F)N2C1=O)NCCc1ccccc1 (stereo not drawn)	-2%
35	Cc1ccc(NC(=O)c2nc(S(C)(=O)=O)ncc2N(Cc2ccco2)Cc2ccco2)cc1C	7%
36	CCC(Sc1nc2cc(OC)c(OC)cc2c(=O)n1CCc1ccc(Cl)cc1)C(=O)NCCOC (stereo not drawn)	-3%
37	COCCc1nn2c(=O)cc(COC(=O)c3ccccc3C)nc2s1	-64%
38	N#Cc1ccc(NC(=O)C2Cc3ccccc3CN2S(=O)(=O)c2ccc(F)cc2)cc1 (stereo not drawn)	12%
39	CCCc1c(C)c2ccc(O)c(CN3CCN(c4ccc(F)cc4)CC3)c2oc1=O	0%
40	CCc1ccc(N2CCn3c2nc2c3c(=O)n(Cc3ccc(F)cc3)c(=O)n2C)cc1	-15%
41	COc1cc(OC)cc(C(=O)Nc2nc(-c3nnn(-c4ccc(F)c(Cl)c4)c3C)ns2)c1	-5%
42	Cc1nc(-c2cccc(S(=O)(=O)N3CCC(C(=O)NCc4ccccc4)CC3)c2)no1	13%
43	COc1ccccc1NC(=O)CSc1nnc(-c2nonc2NC(C)=O)n1-c1ccccc1	-15%
44	Cc1ccc(CNS(=O)(=O)c2ccc3c(c2)CCN3S(C)(=O)=O)cc1	-1%
45	CCc1ccccc1NC(=O)Nc1ccc2snnc2c1	17%
46	COc1cccc(-c2cc(C(=O)Nc3cc(OC)c(OC)c(OC)c3)on2)c1	0%
47	CCn1c(C(=O)N2CCCC(C(=O)N3CCN(c4ccccc4)CC3)C2)cc2sccc21 (stereo not drawn)	19%
48	COc1ccc(NC(=O)N2CCN(c3cc(-c4noc(C)n4)ccc3C)CC2)c(OC)c1	-8%
49	CCc1ccc(-n2c(=O)c3c4c(sc3n(Cc3ccccc3C#N)c2=O)CCC4)cc1	-2%
50	COc1ccc(OCCCn2c(=O)oc3ccc(C)cc32)cc1	-6%

Later entries
item	smiles	miR-21 FLuc
51	CCN(C(=O)CSc1nc2ccccc2n1CC(=O)N1CCCC(C)C1)c1ccccc1 (stereo not drawn)	1%
52	Cn1cc(C(c2ccccc2)c2ccc(Cl)s2)c2ccccc21 (stereo not drawn)	0%
53	Cc1cc2oc(C(=O)N(Cc3ccc(N(C)C)cc3)CC3CCCO3)c(C)c2cc1Cl (stereo not drawn)	9%
54	O=C(NCCc1csc(-c2cccc(F)c2)n1)c1cccs1	7%
55	CCOC(=O)c1noc2ncn(CC(=O)Nc3cccc(Cl)c3)c(=O)c12	3%
56	CCOC(=O)c1c(C)[nH]c(C)c1S(=O)(=O)N1CCC(C(=O)Nc2ccc(C)cn2)CC1	-4%
57	CCc1c(C)sc2c1CCN(C(=O)Nc1ccccc1C(=O)OC)C2c1ccc(OC)cc1 (stereo not drawn)	0%
58	COc1cccc(NC(=O)Cn2cc(C(=O)c3ccco3)c3ccccc32)c1	-2%
59	CCOc1ccc(CNC(=O)C2CCCN(c3nn4cc(-c5ccc(F)cc5)nc4s3)C2)cc1 (stereo not drawn)	-17%
60	COc1ccc(C(=O)Nc2ccccc2SCc2cc(=O)c3cccc(C)c3[nH]2)cc1	-2%
61	Cc1c(C(=O)Nc2cccc(Cl)c2)oc2ccc(S(=O)(=O)N3CCOCC3)cc12	8%
62	CCOC(=O)C1CCN(c2c(C(=O)c3ccc(OC)cc3)cnc3ccccc23)CC1	-6%
63	CCOc1ccc(-c2cc(C(=O)NCCc3ccccc3)c3c(-c4ccc(C)cc4)[nH]nc3n2)cc1	-46%
64	CCOC(=O)c1ccccc1NC(=O)N1CCN(Cc2cc(=O)n3nc(-c4ccccc4)sc3n2)CC1	-2%
65	CCOc1ccccc1NC(=O)CCc1c(C)nn(-c2ccc(N3CCOCC3)nn2)c1C	2%
66	COCc1cc(C)n(CC(=O)Nc2ccc(NC(C)=O)cc2)c(=O)c1C#N	1%
67	COc1cc(C(=O)N2CCN(CCc3ccccn3)CC2)cc(OC)c1OC	-4%
68	Cc1ccc(Cl)cc1N1CCN(C(=O)Cc2c(C(=O)O)c(C)cn2C)CC1	1%
69	COc1ccc(Nc2cc(C)c3cc(NC(=O)COc4cccc(C)c4)ccc3n2)cc1	?
70	CCc1nn2c(=O)cc(COC(=O)c3ccco3)nc2s1	-3%
71	Cc1ccc(NC(=O)Cn2cc(C(=O)C3CCCCC3)c3ccccc32)c(C)c1	23%
72	O=C(Cn1cc(C(=O)c2ccco2)c2ccccc21)Nc1ccccc1Cl	1%
73	Cc1ccc(-c2nc3cccc(C)n3c2Nc2ccc3c(c2)OCO3)o1	8%
74	COc1ccc(CNC(=O)c2ccc3c(c2)NC(=O)C(CS(=O)(=O)Cc2ccccc2Cl)N3)cc1 (stereo not drawn)	-1%
75	Cc1cccc2sc(N(Cc3cccnc3)C(=O)c3cccs3)nc12	-8%

Sorted by count of non-hydrogen atoms (lowest first): three of the compounds above
item	smiles	miR-21 FLuc
32	COc1cc(C2c3c(oc4ccccc4c3=O)C(=O)N2c2nc(C)c(C)s2)ccc1O (stereo not drawn)	2%
14	Cc1cc(Nc2cccc(C(F)(F)F)c2)nc2ccc(NC(=O)Cc3ccc(Cl)cc3)cc12	?
10	COc1ccc(CCNc2nc3c(-c4cccc(C(F)(F)F)c4)nnn3c3ccccc23)cc1OC	0%

(list continues)
item	smiles	miR-21 FLuc
76	CCOc1ccc(N(C)C(=O)CS(=O)(=O)c2cccc3nsnc23)cc1	0%
77	COc1ccc(C2=C(Nc3ccc(C)c(C)c3)c3ccccc3C2=O)cc1	3%
78	O=S(=O)(c1ccc2c(c1)CCN2)N1CCCCCC1	1%
79	CCn1c(CN2CCCCC2)nc2cc(NC(=O)COc3ccc([N+](=O)[O-])cc3)ccc21	9%
80	CCc1ccc(N2C(=O)CN(S(=O)(=O)CC)CC2(C)C(=O)NC2CCCCC2)cc1 (stereo not drawn)	6%
81	Cc1c(C(=O)OC2CCC(C)CC2)[nH]c2c1C(=O)CC(c1ccc(F)cc1)C2 (stereo not drawn)	16%
82	CSc1cccc(NS(=O)(=O)c2cn(C)c(C)n2)c1	1%
83	CC1=C(c2ccc(C)c(C)c2)S(=O)(=O)N=C1N1CCC(C(=O)NCCc2ccc(Cl)cc2)CC1	?
84	O=C(CSc1nnc(-c2ccc(F)cc2)o1)N1CCCc2ccccc21	-5%
85	COc1ccc(S(=O)(=O)NCC(c2ccc(N(C)C)cc2)N2CCc3ccccc32)cc1OC (stereo not drawn)	-7%
86	COc1ccc2nc(N3CCN(C(=O)CS(=O)(=O)c4ccc(C)cc4)CC3)sc2c1	25%
87	O=C(CN1N=C(c2ccc(Cl)cc2)CCC1=O)NCCc1ccccc1	-5%
88	Cc1ccc(N(CC(=O)NCCc2ccccc2C)S(=O)(=O)N(C)C)cc1	0%
89	Cc1ccc(-c2ccc(=O)n(CC(=O)NCCc3ccc(Cl)cc3)n2)cc1	0%
90	CN1c2ccccc2-c2nc(SCC(=O)Nc3ccccc3)ncc2S1(=O)=O	7%
91	COc1cccc(CNCc2cccn2-c2nnc(N3CCN(c4ccccc4)CC3)s2)c1	16%
92	O=C(NCCN1CCN(c2cccc(Cl)c2)CC1)C1COc2ccccc2C1 (stereo not drawn)	26%
93	CCN(CC)c1nn2c(=O)c(C(=O)NCCc3ccccc3)cnc2s1	-9%
94	Cc1ccc(NC(=O)CSc2nc(-c3ccc(F)cc3)cc(C(F)(F)F)c2C#N)cc1	0%
95	CCN(CC)c1ccc(NC(=O)c2c(C)nn(-c3ccc(F)cc3)c2-n2cccc2)c(C)c1	17%
96	Cc1ccc(-c2nc3sccn3c2Nc2ccccc2C)cc1	1%
97	Cc1cc(C)c(NC(=O)CN2c3ccccc3S(=O)(=O)c3ccccc32)c(C)c1	-1%
98	COc1ccc2c(c1)c(=O)c(S(=O)(=O)c1ccc(Cl)cc1)cn2Cc1cc(C)ccc1C	1%
99	O=C(Cn1cnc2c(nc3n2CCCCC3)c1=O)Nc1ccc(F)c(Cl)c1	-1%
100	Cc1c(Cl)cccc1NC(=O)COCc1cc(-c2ccc3c(c2)OCO3)on1	-11%

Part of the list above in a different format:
92) O=C(NCCN1CCN(c2cccc(Cl)c2)CC1)C1COc2ccccc2C1 (stereo not drawn)
- miR-21 FLuc = 26%

81) Cc1c(C(=O)OC2CCC(C)CC2)[nH]c2c1C(=O)CC(c1ccc(F)cc1)C2 (stereo not drawn)
- miR-21 FLuc = 16%

87) O=C(CN1N=C(c2ccc(Cl)cc2)CCC1=O)NCCc1ccccc1
- miR-21 FLuc = -5%

91) COc1cccc(CNCc2cccn2-c2nnc(N3CCN(c4ccccc4)CC3)s2)c1
- miR-21 FLuc = 16%

(cont.)
item	smiles	miR-21 FLuc
101	Cc1ccc(Sc2c(C)nn(C(=O)c3ccc(Cl)cc3)c2C)cc1	-7%
102	CCc1ccccc1NC(=O)Nc1cc(C(=O)NCc2ccc(OC)cc2)ccc1N1CCCC1	-16%
103	Cc1cccc(OCC(=O)Nc2cccc(C(=O)OCc3cc(=O)n4nc(C(C)C)sc4n3)c2)c1	18%
104	COc1cc(NC(=O)CSc2nc3nc(C)c(Cc4ccccc4)c(C)n3n2)cc(OC)c1	26%
105	O=c1c2ccccc2n(Cc2c(F)cccc2Cl)c(=O)n1Cc1ccccc1	0%
106	O=C1CCSc2ccc(S(=O)(=O)Nc3ccc(Cl)c(C(F)(F)F)c3)cc2N1	-19%
107	COc1cc(C(=O)Nc2ccc3oc(-c4ccccc4)nc3c2)cc(OC)c1OC	?
108	O=C(Nc1ccccc1C(F)(F)F)N1CCC2(CC1)Oc1ccccc1C(=O)N2Cc1ccccc1F	12%
109	CCOC(=O)c1ccc(NC(=O)CN2C(=O)C(C)(C)c3ccccc32)cc1	?
110	Cc1cc(C)c(/C=C/c2onc(C)c2S(=O)(=O)N2CCC(C(=O)Nc3ccc(Cl)cc3C)CC2)c(C)c1	0%
111	CCn1cc(C(=O)NCCCOC(C)C)c(=O)c2cc(S(=O)(=O)N(C)C3CCCCC3)ccc21	?
112	O=C(Nc1nc2ccc(F)cc2s1)c1nc(SCc2ccccc2F)ncc1Cl	1%
113	COc1ccc(NC(=O)Cn2nc(SC)c(S(=O)(=O)c3ccc(C)cc3)c2N)cc1OC	-6%
114	CCOC(=O)C1=C(CN2CCN(c3ccc(Cl)cc3)CC2)NC(=O)NC1c1ccc(F)cc1 (stereo not drawn)	?
